Assay outcomes deposited in PubChem by National Center for Advancing Translational Sciences (NCATS).
Sfp PPTase inh – blocks B. subtilis Sfp PPTase activity; Biochemical Sfp PPTase activity, qHTS; Potency, µM, without a hit: max response, negative = inhibition, hits mostly inhibitors; actives 3.5% (n = 310,000); AID 1490; active = well fitted inhibition curve with a large enough effect; inconclusive = small, poorly fitted or top-dose-only effect, or another doubt; inactive = no such curve, though single readings can be large or run the other way;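 also: the enzyme is Sfp with the accession as filed and its product quenches rhodamine fluorescence; potency is read from the fitted curve at half-maximal effect; 0% = enzyme reaction without inhibitor and -100% = no enzyme wells; top concentration of the series not given in the record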
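Sfp 15 nM + cpd, 15 min RT; start w/ rhodamine-CoA 5 uM, BHQ-2-YbbR 12.5 uM (final); 50 mM Hepes pH 7.6, 10 mM MgCl2, 0.01% NP-40, 0.01% BSA; read 525/598 nm at 0 and 30 min.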
TRPV1 PAM – potentiators of human vanilloid receptor 1 (TRPV1); potentiation, % at 8.33 µM; TRPV1-expressing cells, Fluo-8 calcium influx, capsaicin EC20 potentiation; host cell line not named in the record; control for the full effect not named in the record; actives 0.02% (n = 320,000); AID 540277; Q8NER1; active means potentiation above 80%; inconclusive means 30% to 80%; inactive means below 30%; also: 0% is about no effect
Target sequence (Q8NER1 whole entry, looked up): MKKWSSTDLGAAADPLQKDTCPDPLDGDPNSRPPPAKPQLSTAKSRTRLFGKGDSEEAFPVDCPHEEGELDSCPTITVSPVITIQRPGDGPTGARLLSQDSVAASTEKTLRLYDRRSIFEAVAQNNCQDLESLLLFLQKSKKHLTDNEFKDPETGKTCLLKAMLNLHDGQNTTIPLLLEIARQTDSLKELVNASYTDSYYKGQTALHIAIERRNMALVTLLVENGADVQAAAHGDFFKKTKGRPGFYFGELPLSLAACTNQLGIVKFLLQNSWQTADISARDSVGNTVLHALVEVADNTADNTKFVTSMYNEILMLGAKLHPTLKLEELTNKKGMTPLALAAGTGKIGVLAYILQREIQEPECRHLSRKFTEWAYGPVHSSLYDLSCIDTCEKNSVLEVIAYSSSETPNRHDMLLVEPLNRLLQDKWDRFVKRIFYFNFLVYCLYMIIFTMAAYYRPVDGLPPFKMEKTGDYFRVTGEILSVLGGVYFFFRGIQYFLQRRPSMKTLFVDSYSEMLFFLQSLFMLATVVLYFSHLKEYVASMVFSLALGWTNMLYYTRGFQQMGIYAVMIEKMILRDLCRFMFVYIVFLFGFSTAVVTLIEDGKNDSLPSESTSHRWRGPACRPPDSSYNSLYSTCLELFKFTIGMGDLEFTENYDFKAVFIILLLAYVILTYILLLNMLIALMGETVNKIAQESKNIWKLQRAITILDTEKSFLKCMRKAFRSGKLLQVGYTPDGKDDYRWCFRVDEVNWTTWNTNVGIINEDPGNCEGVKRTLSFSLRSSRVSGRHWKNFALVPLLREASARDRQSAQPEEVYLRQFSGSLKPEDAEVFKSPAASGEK
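Fluo-8 calcium influx in TRPV1-expressing cells, kinetic read (ex 480/em 520 nm). Compound added and read 3 min for agonist activity, followed by capsaicin at EC20 final and 2 min further read for enhancement.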
ClpP mod – qHTS Assay for Activators of ClpP; ATP-dependent Clp protease proteolytic subunit (Bacillus subtilis (strain 168)), P80244; purified B. subtilis ClpP, FRET peptide cleavage, 20 min; Potency, µM (highest dose often 57.5 µM), for the others: top-dose activity change, negative = active; actives 1.9% (n = 340,000); AID 651965, 2013; active = well fitted falling curve with a large enough effect; inconclusive = small, poorly fitted or top-dose-only effect; inactive = no such curve, though single readings can be large or run the other way; also: potency is read from the fitted curve at half-maximal effect; the source files actives as falling curves though it sought activators and does not explain the sign; nearly all actives have a fitted effect of over 65% in size; many hits overshoot -100%
Target sequence (P80244 whole entry, looked up): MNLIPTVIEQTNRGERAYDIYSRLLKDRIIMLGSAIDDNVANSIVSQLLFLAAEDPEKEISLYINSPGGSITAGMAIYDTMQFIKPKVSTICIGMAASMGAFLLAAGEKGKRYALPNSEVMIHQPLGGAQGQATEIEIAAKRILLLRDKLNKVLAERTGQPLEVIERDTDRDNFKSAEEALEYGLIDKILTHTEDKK
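ClpP 10 microg/mL final, pH 8 Tris/KCl buffer with BSA, glycerol, Tween-20; compound pinned in; FRET-FV substrate; RT 20 min; Ex320/Em430; ΔFRET vs ADEP 5.8 microM, DMSO, no enzyme.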
Menin MLL FP FL – displaces fluorescein MLL peptide from human menin; Fluorescence polarization, fluorescein-MLL peptide displacement from menin; FP activity change, % at 61.4 µM; 290,000 tested, under 10 active; AID 1766; inconclusive = falling polarisation curve, or a change in total fluorescence; inactive = total fluorescence flat and polarisation flat or rising; no compound was filed as active; the % refers to the polarisation; negative = inhibition;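 also: % of control where 0% means no effect; inhibitors lower the polarisation; unlabelled MLL peptide was the positive control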
gsp antagonist – antagonizes gsp, the McCune-Albright syndrome mutation; Potency, µM (series often up to 76.9 µM), for the others: at the highest dose activity change, negative = inhibition, actives largely listed as inhibitors; gsp-mutant cells, cAMP HTRF, 30 min; control for the full effect not named in the record; actives 0.4% (n = 340,000); active = falling curve of any shape with a large fitted effect; inconclusive = falling curve, mostly with a smaller effect; inactive = flat or rising curve; cell line not stated here;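 also: intracellular cAMP measured with PDE inhibitor Ro 20-1724 present during compound exposure; potency is read from the fitted curve at half-maximal effect; % is scaled to controls: 0 for no effect and ±100 for the full control effect; nearly all actives have a fitted effect of over 65% in size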
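G418-selected cells were plated in DMEM/10% FBS for 16-24 h at 37C, then treated with compounds plus the PDE inhibitor […] (300 uM solution added) for 30 min at 37C. Intracellular cAMP was measured by HTRF after 30 min lysis at room temperature.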
TRPML1 blocker – inhibitors of human TRPML1 channel | TRPML1-inducible cells, Ca2+ dye fluorescence, FDSS; active compounds read low; inhibition of EC80 agonist-evoked calcium signal | activity change, negative = inhibition, % (concentration not given with the values) | actives 0.02% (n = 390,000) | AID 624415; in the data active means activity change below about -50%; inconclusive means about -30% to -50%; inactive means above about -30%;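 also: stimulus is agonist 54-4 at its EC80 concentration; % is scaled to controls: 0 for no effect and ±100 for the full control effect; the text of the record puts the active cut at -80%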
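TRPML1-DL cells, Tet-induced overnight (~16 h, 37 °C) at 1,500 cells/well, were loaded with Ca8 no-wash dye plus quencher for 45-90 min at room temperature. Compounds were pinned during FDSS kinetic reading; agonist 54-4 at EC80 (4 uM final) then added.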
gsp ag – agonists of gsp mutant (McCune-Albright syndrome); gsp mutant cells, cAMP HTRF, 30 min; control for the full effect not named in the record; Potency, µM (doses to about 76.9 µM), for inactives: at the top dose activation (cAMP increase), most hits filed as activators; actives 0.13% (n = 340,000); active = well fitted activation curve with a large enough effect; inconclusive = small, poorly fitted or top-dose-only effect, or another doubt; inactive = no such curve, though single readings can be large or run the other way; cell line not stated here;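 also: phosphodiesterase inhibitor Ro 20-1724 added with compounds to block cAMP breakdown; potency is read from the fitted curve at half-maximal effect; nearly all actives have a fitted effect of over 60% in size; about a fifth of the inactives were tested at one dose only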
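Cells in DMEM/10% FBS with G418 were pretreated with compounds in DMSO plus […] (300 uM stock) for 30 min at 37C. cAMP was measured by HTRF (cAMP-d2 plus anti-cAMP antibody-K) after 30 min at room temperature.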
* marks the source's active call; other numbers are inactive results; u = inconclusive; x = not tested or not shown; [ ] = remark or other dose.

mol	TRPML1 blocker	Menin MLL FP FL	ClpP mod	TRPV1 PAM	gsp ag	gsp antagonist	Sfp PPTase inh
O=[N+]([O-])c1ccc2nc(C(O)C(O)c3nc4ccc([N+](=O)[O-])cc4[nH]3)[nH]c2c1 (stereo not given)	3	-0.3	-2.1%	-2	19%[15.4 µM]	-7%	17%
Cc1cccc(NC(=O)CCC(=O)c2cccs2)n1	12	x	3.5µM*	2	0%[15.4 µM]	-6%	x
C=C(C)CNC(=S)Nc1cccc(S(=O)(=O)NC2=NCCC2)c1	2	-0.7	0.3%	10	u	-6%	-27%
CCOc1ccccc1N1C(=O)CC(Sc2ccccc2N)C1=O (stereo not given)	2	x	0.3%	x	3%	x	x
C=CCc1c(C)nc(C)nc1N/N=C/c1ccccc1O	4	u	-2.5%	-6	-29%	-4%	-25%
O=S1(=O)N=C(N/N=C/C=C/c2ccccc2)c2ccccc21	21	3.3	-3.6%	6	-24%	2%	6%
C=CCNC(=S)NNC(=O)c1ccc(OC(C)C)cc1	-15	3.6	1.4%	u	-33%[inhibitor]	11%	17%
CC(=O)O[C@H]1CC(=O)OC(C)(C)C2CC(=O)[C@]3(C)C(CC[C@@](C)([C@@H](O[C@@H]4O[C@H](CO)[C@@H](O)[C@H](O)[C@H]4O)c4ccoc4)[C@@]34O[C@@H]4C(=O)O)[C@]21C (stereo not given in full)	-5	x	-0.3%	1	-30%	2%	x
Cc1cccc(C)c1NC(=O)NS(=O)(=O)c1ccccc1	29	x	-0.2%	x	-16%	x	x
CC(=O)Nc1cccc2c1Cc1cc([N+](=O)[O-])ccc1-2	5	x	0.8%	x	-14%	-9%	x
CC(C)Sc1ncnc2c1cnn2-c1ccccc1	3	0.1	0.9%	1	5%[15.4 µM]	-7%	-5%
O=C(NCC1CCCO1)c1cnn2c1NC(c1ccccc1)CC2C(F)(F)F (stereo not given)	-15	0.4	-0.4%	1	6%	-2%	12%
Oc1ccc(-c2csc(Nc3ccccn3)n2)cc1O	0	9.3	-0.4%	-1	-5%	-5%	45µM*
CCN(CC(=O)Nc1c(F)cccc1F)C(=O)c1cccc(S(=O)(=O)N2CCc3ccccc3C2)c1	13	x	-1.9%	3	-28%	-18%	x
Cc1ccc(NC(=O)COC(=O)c2ccco2)cc1	5	3.1	-2.0%	11	-13%	12%	5%
CCOC(=O)C1=C(CCc2ccccc2)NC(=O)NC1c1ccc2ccccc2c1 (stereo not given)	-2	3.5	0.2%	22	x	7%	7%
Cc1ccc(OCC(COCc2ccccc2)NC(C)C)cc1 (stereo not given)	-18	x	x	x	16%[15.4 µM]	12%	x
COc1ccc(Cn2c(=O)[nH]c3cc(C(=O)NCc4ccc5c(c4)OCO5)ccc3c2=O)cc1	17	x	4.5%	x	0%	13%	x
CC1Cc2cc(-c3csc(N)n3)ccc2O1 (stereo not given)	-14	1.3	x	4	-56%[inhibitor]	5%	-12%
CCOc1ccc2nc(SCC(=O)Nc3ccc4c(c3)OCO4)sc2c1	29	3.6	-7.0%	-14	-59%[inhibitor]	-23%	-25%
O=C(O)c1ccc(N=NNc2cccc([N+](=O)[O-])c2)cc1	5	-3.1	x	-2	0%	-4%	6%
Cc1ccc(N=Nc2c(O)[nH]c(=O)[nH]c2=O)cc1S(=O)(=O)Nc1ccc(Br)cc1	7	x	x	x	-5%	-16%	x
c1ccc(-n2cccc2CNC2CCCCC2)cc1	-6	4.7	0.8%	17	4%	11%	-14%
Cc1ccc(S(=O)(=O)N2CCCCC2CCNC(=O)C(=O)NCc2ccncc2)cc1 (stereo not given)	9	x	-1.5%	-10	-4%[15.4 µM]	-8%	x
COC(=O)C1(C)CC1(c1ccccc1)c1ccccc1 (stereo not given)	-15	-5.2	1.3%	14	-3%	1%	-1%

Following part.
mol	TRPML1 blocker	Menin MLL FP FL	ClpP mod	TRPV1 PAM	gsp ag	gsp antagonist	Sfp PPTase inh
CCOC(=O)c1c(CC(C)C)csc1NC(=O)COC(=O)c1cnc(C)cn1	-13	x	3.8%	x	-21%	x	x
Cc1nn(C)c(Oc2cccc(Cl)c2)c1C=O	20	1.7	-1.4%	16	-5%	5%	6%
COc1ccccc1C(=O)NCC(=O)NCc1cc(=O)n(C)c(=O)n1C	23	0.3	-5.1%	13	10%	-4%	4%
Cc1ccsc1/C=C1\CCc2ccccc2C1=O	4	2.2	0.4%	7	-19%	u	-19%
COc1ccc(CNC(=O)CN2C(=O)c3ccc([N+](=O)[O-])cc3C2=O)cc1	17	x	-0.4%	9	0%[15.4 µM]	11%	0%
CN(C)c1ccc(S(=O)(=O)N(C)C)cc1[N+](=O)[O-]	9	5.5	x	-4	10%[15.4 µM]	15%	21%
CC(C)[C@H](Nc1ncnc2c1oc1ccccc12)C(=O)O	-14	2.6	x	1	11%[15.4 µM]	-1%	30%[activator]
Cc1ccc(/C=C2\CCC3=C2OC(N)=C(C#N)C3c2ccc(C)cc2)cc1 (stereo not given)	-1	u	0.8%	u	-15%[15.4 µM]	-1%	6%
O=S(=O)(c1ccc(Cl)s1)N1CCN(Cc2ccccc2)CC1	9	0.6	1.1%	-8	3%	0%[15.4 µM]	2%
CN(C(=O)c1ccccn1)c1nnc(-c2ccccn2)s1	3	2.6	530%	1	-22%	7%	10%
CCOC(=O)c1c(C)oc2c1c(C(c1cccnc1)N1CCCCC1)c(O)c1ccccc12 (stereo not given)	9	-0.5	-2.2%	-7	-5%	-3%	-19%
CCOc1cc(CNC2CCCC2)c(Cl)cc1OCC(=O)Nc1ccccc1	-9	-1.5	0.9%	16	-24%	6%	-1%
NC(=S)Nc1cc2ccccc2c2ccccc12	14	3.2	34%	8	-22%	-4%	-8%
C/C(=C\C(=O)c1ccccc1)NNc1nc2ccccc2s1	12	1.8	-7.0%	6	u	-9%	-8%
O=C(c1ccccc1)c1cc(Cl)ccc1N1C(=O)C=CC1=O	-15	-0.3	x	10	0%	16%	3.2µM*
CC(C)C(=O)Nc1cccc(NC(=S)NC(=O)c2ccc([N+](=O)[O-])cc2)c1	11	2.0	0.5%	-5	u	-21%	-2%
Cc1cccn2c(=O)c3cc(C(=O)NCc4ccco4)c(=N)n(C4CCCCC4)c3nc12	-16	x	x	9	-3%[15.4 µM]	-4%	-2%
Cc1n[nH]c(C)c1S(=O)(=O)N1CCCC(C(=O)NCc2ccc(F)cc2)C1 (stereo not given)	u	4.5	-1.4%	-1	-17%	5%	21%
Cc1ccc(N2C(=O)N(Cc3ccccc3C)c3ccccc3S2(=O)=O)cc1	36	2.0	-2.4%	-2	-11%	-3%	19%
CC(C)(C)OC(=O)N1CCN(C(=O)c2[nH]cnc2C(=O)NCC(=O)OCc2ccccc2)CC1	-15	-1.7	-0.4%	-6	-10%	-7%	19%
O=C1c2ccc([N+](=O)[O-])cc2C(=O)N1c1ccc(Cl)cn1	-10	-2.3	0.1%	-2	16%	6%	5%
O=S(=O)(c1ccc(F)c(F)c1)N1CCN(Cc2ccc3c(c2)OCO3)CC1	8	-0.1	-1.5%	4	u	2%	0%
Cc1ccccc1Cn1cc(NC(=O)c2nc3ncccn3n2)cn1	27	1.8	-2.5%	7	18%	-9%	22%
O=C(O)CSc1nnc(-c2ccccc2)c(-c2ccccc2)n1	x	-4.5	1.5%	6	22%	-13%	17%
CC1(C)NC(=O)N(CC(O)CN(Cc2ccccc2)Cc2ccccc2)C1=O (stereo not given)	7	-0.7	0.0%	-3	17%	4%	-8%

The list continues.
mol	TRPML1 blocker	Menin MLL FP FL	ClpP mod	TRPV1 PAM	gsp ag	gsp antagonist	Sfp PPTase inh
Cc1ncc(CN2CCC(n3nccc3NC(=O)c3ccccc3)CC2)s1	-3	1.4	-0.4%	-3	-16%	0%	3%
CCN(CC)S(=O)(=O)c1ccc(N2CCOCC2)c(NC(=O)Cc2ccccc2)c1	6	3.1	-15%	3	-37%[inhibitor]	13%	-3%
CCOc1ccc(-c2nc(S(=O)(=O)c3ccccc3)c(NC)o2)cc1	-5	x	76%	14	9%	-3%	13%
O=S(=O)(c1ccc(-c2csc(-c3cccnc3)n2)cc1)N1CCCC1	16	0.3	-10%	9	-3%	-19%	-14%
COc1ccc(NC(=O)CSc2ccc3nnc(-c4cccnc4)n3n2)c(OC)c1	4	0.1	x	17	15%[15.4 µM]	17%	-8%
Cc1cc(C(=O)Nc2ccccc2N2CCOCC2)no1	12	x	-1.6%	1	-36%[inhibitor]	2%	x
Cc1ccccc1NC(=O)COC(=O)CC1CCCC1	6	x	x	0	-5%[15.4 µM]	5%	x
COC(=O)C(C(=O)Nc1ncccn1)C1CCCCCC1 (stereo not given)	28	2.4	0.8%	-2	-1%	9%	11%
CCc1ccc(/C=N/N2CCN(c3ccccn3)CC2)cc1	3	0.5	1.8%	-7	u	0%	13%
CC(C)(C)c1ccc(C(=O)NNC(=O)c2cccc(Br)c2)cc1	-19	1.2	0.0%	-25	6%	12%	17%
CCCC1(c2ccccc2)NC(=O)N(CC(=O)Nc2cc(OC)cc(OC)c2)C1=O (stereo not given)	7	-4.8	x	17	5%[15.4 µM]	-14%	-3%
O=C(NCCc1c[nH]c2ccccc12)C(=O)NCC1OCCCN1S(=O)(=O)c1ccccc1 (stereo not given)	u	3.3	-2.5%	-5	30%	-5%	9%
CCCN1CCN(CCCNC(=O)c2ccc3c(c2)NC(=O)c2ccccc2S3)CC1	4	0.0	-3.2%	-1	7%	2%	7%
COc1ccc(-c2n[nH]c(C)c2-c2cnn(-c3ccccc3)c2)c(O)c1C	-15	4.9	-8.5%	-8	12%	-3%	18%
CCOC(=O)N1CCN(C(=O)C2CCCN(S(=O)(=O)c3cccnc3)C2)CC1 (stereo not given)	11	2.6	2.2%	7	-15%	5%	14%
Cc1ccc(N(C(=O)CNC(=O)c2ccco2)C(C(=O)NC2CCCCC2)c2cccnc2)cc1F (stereo not given)	-3	1.5	x	u	-24%	-3%	16%
